High-throughput results (PubChem BioAssay)
TRPML1 inh: human mucolipin-1 channel inhibition | 390,000 compounds, 0.02% hits | TRPML1-inducible cells, Ca2+ dye fluorescence, FDSS; stronger effect = lower value; inhibition of EC80 agonist-evoked calcium signal | AID 624415 | Q9GZU1 | activity change, negative = inhibition, % (test concentration not listed); in the data active means activity change below about -50%; inconclusive means about -30% to -50%; inactive means above about -30%;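 also: stimulus is agonist 54-4 at its EC80 concentration; % is scaled to controls: 0 for no effect and ±100 for the full control effect; compound concentration not given in the record; the text of the record puts the active cut at -80%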
Target sequence (Q9GZU1 whole entry, looked up): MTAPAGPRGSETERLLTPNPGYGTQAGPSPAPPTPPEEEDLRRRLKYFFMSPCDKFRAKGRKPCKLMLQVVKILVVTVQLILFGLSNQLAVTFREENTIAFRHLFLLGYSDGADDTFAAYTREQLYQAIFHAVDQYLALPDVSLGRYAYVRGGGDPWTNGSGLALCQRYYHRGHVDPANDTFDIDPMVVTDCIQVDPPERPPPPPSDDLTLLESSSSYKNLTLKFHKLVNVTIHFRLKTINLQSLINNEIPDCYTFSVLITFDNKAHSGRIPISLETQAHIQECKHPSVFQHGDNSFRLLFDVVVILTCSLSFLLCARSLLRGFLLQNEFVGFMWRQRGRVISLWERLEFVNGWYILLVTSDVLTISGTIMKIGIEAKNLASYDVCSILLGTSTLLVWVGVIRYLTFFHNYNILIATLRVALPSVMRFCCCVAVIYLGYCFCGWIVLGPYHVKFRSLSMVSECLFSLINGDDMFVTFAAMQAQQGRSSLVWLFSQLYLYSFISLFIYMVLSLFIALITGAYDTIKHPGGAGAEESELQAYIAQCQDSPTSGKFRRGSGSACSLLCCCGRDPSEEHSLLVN
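TRPML1-DL cells, Tet-induced overnight (~16 h, 37 °C) at 1,500 cells/well, were loaded with Ca8 no-wash dye plus quencher for 45-90 min at room temperature. Compounds were pinned during FDSS kinetic reading; agonist 54-4 at EC80 (4 uM final) then added.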
CtBP-E1A inh: inhibitors of CtBP/E1A interaction. 340,000 compounds, 0.49% hits. AlphaScreen GST-E1A/His-CtBP binding, 1536-well; stronger effect = lower value; control for the full effect not named in the record. activity change, % (concentration not given with the values); in the data active means activity change below about -65%; inconclusive means about -30% to -65%; inactive means above about -30%; also: % is scaled to controls: 0 for no effect and ±100 for the full control effect
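Steps: dispense buffer (Tris pH 8.0, NaCl 300 mM, TCEP 1 mM, BSA, Tween 20); add 5X protein mix (GST-E1A, His-CtBP, 125 nM each); pin 23 nL compound; 2 h at 37 °C, dark; add 5X beads (50 ug/mL); 1 h; read.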
Six1-Eya2 inh: Six1/Eya2 interaction inhibition. Q15475+O00167. AlphaScreen GST-Six1/His-Eya2 binding, biochemical; stronger effect = lower value; control for the full effect not named in the record. activity change, % (concentration not given with the values). 360,000 compounds, 0.56% hits; in the data active = activity change below about -65%; inconclusive = about -30% to -65%; inactive = above about -30%; also: % is scaled to controls: 0 for no effect and ±100 for the full control effect
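GST-Six1 + His-Eya2 (5X stock: 250/500 nM); Tris pH 8.0, 300 mM NaCl, 0.05% BSA, 0.02% Tween 20; GSH donor/Ni acceptor beads; 1 h 37 °C dark; AlphaScreen readout.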
TRPML1 ag: human mucolipin-1 channel agonism; Q9GZU1; TRPML1-expressing cells, Ca2+ dye fluorescence, FDSS; host cell line not named in the record; reference of the full effect not given here; activation, % (concentration not given with the values); 410,000 compounds, 0.12% hits; AID 624414; in the data active = activation above about 50%; inconclusive = about 30% to 50%; inactive = below about 30%; also: 0% is about no effect; the text of the record puts the active cut at 80%
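TRPML1-DL cells, Tet-induced overnight (~16 h, 37 degrees C), loaded 45-90 min at room temperature with Ca8 no-wash calcium dye plus quencher. FDSS fluorescence: 10 s baseline, compound pin-transfer, 110 s agonist read, then EC80 54-4 (4uM final) and 110 s antagonist read.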
D2 agonist: activates the human D2 dopamine receptor. P14416. DiscoveRx PathHunter D2 beta-arrestin, luminescence, 90 min; 100% = 57 uM dopamine signal. activation, % (no concentration beside the values). 360,000 compounds, 0.084% hits; in the data active = activation above about 40%; inconclusive = about 15% to 40%; inactive = below about 15%; also: compound concentration not given in the record; the text of the record calls up to 30% inactive
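DiscoveRx PathHunter D2 beta-arrestin cells (2,100/well) attached overnight, then compound-stimulated 90 min at 37 C in HBSS/10 mM HEPES/0.1% Tween-20 buffer; beta-galactosidase complementation read by luminescence after 1 h at ambient temperature. Dopamine 57 uM final (EC100) as control.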
PINK1 modulator: PINK1 expression modulation; PINK1 immunofluorescence, high-content cytometry, 24 h; Potency, µM (top dose mostly 76.6 µM), inactives show at the highest dose activation (PINK1 increase), actives largely listed as activators; 410,000 compounds, 0.2% hits; AID 624263; active = well fitted activation curve with a large enough effect; inconclusive = small, poorly fitted or top-dose-only effect; inactive = flat fitted curve, though single readings scatter; cell line not stated here;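 also: potency is read from the fitted curve at half-maximal effect; % of control where 0% means no effect; nearly all actives have a fitted effect of over 65% in size; a mitochondrial uncoupler was the plate control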
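A stable cell line was treated with compounds at 5 concentrations for 24 hours, with CCCP as control. PINK1 levels and mitochondrial localization were measured by immunofluorescence with mitochondrial, cell and nuclear markers after fixation, read by laser-scanning cytometry.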
* = called active by the depositor; ? = inconclusive; / = no result given; [ ] = remark or other dose. Compounds as they come. About 1% of those tested had a hit in this group.

No.	molecule	D2 agonist	PINK1 modulator	TRPML1 ag	CtBP-E1A inh	TRPML1 inh	Six1-Eya2 inh
1	Cc1oc(-c2ccc(Cl)cc2)cc1C(=O)/C(C#N)=C/Nc1cccc(OC(F)(F)F)c1	-2.5	-1.0%	1.9	-3	-17	-1
2	CN(CCC#N)C(=O)CSc1nnc(-c2c[nH]c3ccccc23)o1	-1.4	-0.1%	1.0	/	17	-2
3	Cc1nc(N2CCOCC2)c2c(C)c(C(=O)Nc3ccccc3C(F)(F)F)sc2n1	0.6	1.0%	2.0	-2	-11	-2
4	Cc1cc(C(=O)Nc2cccc(C)c2C)c2ccccc2n1	5.2	-0.7%	-0.9	/	5	-18
5	Cc1ccc(NC(=O)Cn2c(=O)n(Cc3nc(-c4ccccc4)no3)c(=O)c3ccccc32)cc1C	/	-1.7%	0.4	/	-5	/
6	CCn1cc(S(=O)(=O)c2cccc(Cl)c2)c(=O)c2cc(F)c(N3CCC(C)CC3)cc21	/	?	-0.5	/	9	/
7	COc1ccccc1-c1nnc(SCc2nc3ccccc3[nH]2)n1C	-2.8	0.6%[38.3 µM]	0.8	4	2	-4
8	COc1ccc(N(CC(=O)NCc2cccs2)S(=O)(=O)c2ccc(F)cc2)cc1	0.1	0.3%	1.2	3	4	4
9	CN(C)/C=N/c1cc(=O)[nH]c(=O)n1Cc1ccccc1	-1.6	-1.0%	-0.5	4	3	2
10	O=C(CSc1ccc(-c2ccccn2)nn1)NC1CCCC1	-0.5	-0.3%	-0.3	-76*	-10	-88*
11	O=C(CCC(=O)N1CCOCC1)Nc1nnc(C2CCCCC2)s1	-2.4	-0.6%[38.3 µM]	-0.2	8	-1	5
12	Cc1ccccc1N1CCN(C(=O)CN2C(=O)c3ccccc3C2=O)CC1	-3.4	-0.2%[38.3 µM]	-0.7	1	5	-1
13	Cc1csc(N2CCN(c3cc4nc(-c5ccncc5)[nH]c4cc3Cl)CC2)n1	3.7	2.3%	-0.8	-1	-1	0
14	Cc1c(-c2nnc(SCC(=O)Nc3ccc(Cl)cc3)o2)nnn1-c1ccc(F)cc1	/	-0.6%	-0.3	/	-7	/
15	O=C(CSc1cc(Cl)ccc1Cl)NCC(=O)Nc1ccc(F)c(F)c1F	0.7	-0.8%	-0.1	2	3	6
16	CC(Sc1nnc(CC(=O)Nc2ccccc2F)n1C)C(=O)Nc1nccs1 (stereo unspecified)	-2.9	3.7%	-0.4	3	6	-5
17	CCCCNc1ncnc2c1nnn2Cc1ccccc1Cl	0.2	5.9%	1.2	15	20	5
18	COC(=O)c1ccc(Nc2c([N+](=O)[O-])c(=O)oc3ccccc23)cc1	-3.5	?	1.4	3	24	-1
19	Cc1ccc(C)c(C(=O)CCC(=O)NNC(=O)c2cccs2)c1	2.2	0.0%	1.0	5	8	1
20	Cc1ccc(S(=O)(=O)N2CCCNCC2)cc1	-3.5	1.7%	0.3	0	5	-1
21	S=c1[nH]nc(-c2cccnc2)n1/N=C/C=C/c1ccccc1	3.6	-0.4%	-0.1	/	32	5
22	CCN(c1ccccc1)S(=O)(=O)c1cc([N+](=O)[O-])ccc1N	-5.6	1.1%	1.7	-4	22	-4
23	O=C(Nc1ccccc1-c1ccccc1)c1ccc(Br)o1	-2.2	0.7%	4.1	5	59	1
24	Cc1ccc(C(=O)NC(C)c2ccc(-n3ccnc3)cc2)cc1 (stereo unspecified)	-0.7	1.5%	2.2	0	-3	0
25	O=C1c2ccccc2C(c2nnnn2-c2ccc3c(c2)OCCO3)N1CCCN1CCOCC1 (stereo unspecified)	/	-0.2%	-0.3	-6	/	7
26	CC(C)(C)OC(=O)C(Cl)(C(=O)OC(C)(C)C)c1ccc2nnnn2n1	1.9	3.8%	0.9	3	-7	8
27	COc1cccc(NC(=O)OCCN2CCN(Cc3ccccc3)CCC2=O)c1	0.3	0.4%	-0.8	1	12	2
28	Cn1cc(S(=O)(=O)Nc2ccc(Cl)cc2Cl)c(=O)n(C)c1=O	1.9	0.0%	0.1	-20	-10	-13
29	O=C(COC(=O)c1n[nH]c(=O)c2ccccc12)c1ccc(Br)cc1	-2.3	0.6%	0.1	10	-19	8
30	O=C(CSCc1ccccc1)N1CCc2ccccc21	-4.8	1.5%	1.3	11	-12	15

Reprinted from the part before: 3 entries, then new ones.
No.	molecule	D2 agonist	PINK1 modulator	TRPML1 ag	CtBP-E1A inh	TRPML1 inh	Six1-Eya2 inh
28	Cn1cc(S(=O)(=O)Nc2ccc(Cl)cc2Cl)c(=O)n(C)c1=O	1.9	0.0%	0.1	-20	-10	-13
29	O=C(COC(=O)c1n[nH]c(=O)c2ccccc12)c1ccc(Br)cc1	-2.3	0.6%	0.1	10	-19	8
30	O=C(CSCc1ccccc1)N1CCc2ccccc21	-4.8	1.5%	1.3	11	-12	15
31	Cc1c(C#N)c(N)c(C(=O)c2ccccc2)n1Cc1ccccc1	-3.5	0.5%	0.7	-6	14	-16
32	Cc1c(C(=O)N2CCOCC2)[nH]c2c1C(=O)CC(c1ccccc1Cl)C2 (stereo unspecified)	0.1	4.4%[38.3 µM]	0.8	1	-10	-2
33	C=CCNc1nc(-c2ccc3c(c2)OCCO3)cs1	-6.0	0.5%	0.4	-6	12	-2
34	O=c1c2c3c(sc2nc(NCCO)n1-c1ccccc1)CCCC3	0.2	-1.4%	0.1	4	-4	-1

An excerpt from above, reduced to D2 agonist.
| nr | Compound | D2 agonist |
| --- | --- | --- |
| 28 | Cn1cc(S(=O)(=O)Nc2ccc(Cl)cc2Cl)c(=O)n(C)c1=O | 1.9 |
| 21 | S=c1[nH]nc(-c2cccnc2)n1/N=C/C=C/c1ccccc1 | 3.6 |
| 33 | C=CCNc1nc(-c2ccc3c(c2)OCCO3)cs1 | -6.0 |
| 27 | COc1cccc(NC(=O)OCCN2CCN(Cc3ccccc3)CCC2=O)c1 | 0.3 |
| 4 | Cc1cc(C(=O)Nc2cccc(C)c2C)c2ccccc2n1 | 5.2 |
| 22 | CCN(c1ccccc1)S(=O)(=O)c1cc([N+](=O)[O-])ccc1N | -5.6 |
